From PubChem
Vif A3G: inhibitors of Vif binding to APOBEC3G peptide, primary screen, biochemical, TR-FRET, GST-Vif 1-94, biotin-A3G peptide, dose response retest (AID 1117319); inhibition, %, or IC50 in µM where a hit was titrated; 260,000 tested, 0.57% active; TR-FRET GST-Vif / biotin-A3G peptide binding; higher % means a stronger effect; test concentration not given here; strong numbers were not always called active;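 active = above the screen mean plus three standard deviations and confirmed in dose response; inconclusive = results disagree or hit not tested in dose response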;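 also: Vif residues 1-94 fused to GST binding biotinylated APOBEC3G peptide 110-148; 0% = full assay without inhibitor and 100% = GST in place of GST-Vif; retest series ran down from 100 µM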
FGF22 binding: binders of recombinant human FGF22 by thermal shift; Q9HCT0; SYPRO orange fluorescence; percent of sucrose octasulfate shift, DMSO zero; calls only at 9.99 µM; 340,000 tested, 1.5% active;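 active = melting point raised past a set limit in the mean and every replicate; inconclusive = no clear call; three in four hits are not shown here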
Target sequence (Q9HCT0 whole entry, looked up): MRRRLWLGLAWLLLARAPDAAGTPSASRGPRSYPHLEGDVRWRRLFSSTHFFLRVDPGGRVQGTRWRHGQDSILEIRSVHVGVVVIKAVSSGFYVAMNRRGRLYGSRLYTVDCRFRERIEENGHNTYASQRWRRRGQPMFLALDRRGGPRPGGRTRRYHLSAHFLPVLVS
HNF4A DNA FP: change in binding of human HNF4 alpha to DNA. P41235. activity change, % at 10 µM. 360,000 tested, 0.3% active. AID 1224865. HNF4a-FITC DNA binding, fluorescence polarization, 1 h; in the data active = activity change above about 30%, passing the limit was not always enough;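 also: controls were the assay level and a saturating level of protein; the project sought stronger binding though the title names inhibitors; some compounds called inactive have numbers as strong as hits; positive values seem to mean higher polarization but the record does not say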
MLL AF4-AF9 inh: MLL-AF4/AF9 protein interaction inhibition; P42568; AlphaScreen, biotin-AF4 peptide binding to FLAG-AF9; inhibition, % at 10 µM; 350,000 tested, 0.47% active;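 active = every replicate reaching a set inhibition limit, whatever the replicate mean, cut at about 25% in these data; inconclusive = mean inhibition reaches that limit but some replicates miss it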;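 also: 0% = plate neutral control median and 100% = total signal loss; the record names both 10 and 1 µM as test concentration; the first replicate is given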
Target sequence (P42568 whole entry, looked up): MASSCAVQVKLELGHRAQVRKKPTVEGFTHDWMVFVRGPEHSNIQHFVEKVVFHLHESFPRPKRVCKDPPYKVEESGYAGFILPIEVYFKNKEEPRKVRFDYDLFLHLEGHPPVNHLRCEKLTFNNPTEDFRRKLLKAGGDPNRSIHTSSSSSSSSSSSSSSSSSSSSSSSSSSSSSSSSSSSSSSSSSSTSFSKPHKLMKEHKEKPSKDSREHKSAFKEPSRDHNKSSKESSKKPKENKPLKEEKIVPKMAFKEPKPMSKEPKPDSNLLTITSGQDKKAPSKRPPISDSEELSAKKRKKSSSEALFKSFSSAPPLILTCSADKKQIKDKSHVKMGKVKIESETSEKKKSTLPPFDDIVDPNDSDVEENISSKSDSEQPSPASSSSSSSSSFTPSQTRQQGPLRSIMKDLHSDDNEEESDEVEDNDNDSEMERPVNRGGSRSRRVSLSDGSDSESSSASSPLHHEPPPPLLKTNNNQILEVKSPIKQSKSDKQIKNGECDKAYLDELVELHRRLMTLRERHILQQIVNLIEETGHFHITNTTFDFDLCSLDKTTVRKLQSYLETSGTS
UCH37 inh: human UCH37 deubiquitinating enzyme inhibition | inhibition, % (concentration not given with the values) | Q9Y5K5 | AID 588478 | purified proteasome/UCH37, Ub-AMC cleavage fluorescence | 330,000 tested, 0.33% active;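 active = mean of two replicates above 20%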;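 also: 0% = compound-free wells with enzyme and 100% = wells lacking proteasome; stock transfer was 100 nL into about 20 µL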
Target sequence (Q9Y5K5 whole entry, looked up): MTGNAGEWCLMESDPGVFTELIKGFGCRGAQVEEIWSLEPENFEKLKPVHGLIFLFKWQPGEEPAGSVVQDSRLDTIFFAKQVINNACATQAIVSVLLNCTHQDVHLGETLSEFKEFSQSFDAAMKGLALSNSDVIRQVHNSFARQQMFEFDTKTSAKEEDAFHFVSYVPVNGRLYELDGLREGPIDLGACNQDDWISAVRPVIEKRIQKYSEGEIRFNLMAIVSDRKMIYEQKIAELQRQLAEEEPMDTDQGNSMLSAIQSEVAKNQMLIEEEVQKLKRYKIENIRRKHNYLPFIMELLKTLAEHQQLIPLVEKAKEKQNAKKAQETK
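System: Proteasome-associated human UCH37 deubiquitinase; Input: 0.15 nM proteasome in added enzyme buffer; Also added: Ub-AMC substrate from 1 µM stock; Incubation: 30 min compound-proteasome preincubation then 25 min substrate reaction, room temperature; Detection: fluorescence, ex 355 nm, em 460 nm; Read-out: % inhibition of Ub-AMC cleavage fluorescence; Benchmarks: no-proteasome and no-compound wells.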
RanGTP-Impb inh: inhibitors of RanGTP-importin-beta interaction, primary screen, biochemical, FRET, CFP-Ran, YFP-importin-beta, homogeneous. cell-free CFP-Ran/YFP-importin-beta FRET ratio. 300,000 tested, 1.1% active. inhibition, % (test concentration not listed);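 active = most replicates above 15%; inconclusive = exactly half above 15%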;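 also: 0% = DMSO wells and 100% = Ran loaded with GDP instead of GTP; wells of about 40 µL received 100 nL stock; the first replicate is given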
Ecoli growth: blocks Escherichia coli growth; OD600, 23 h; stronger effect = lower value; OD600 absorbance (no concentration beside the values); 330,000 tested, 0.21% active; AID 1053175;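 active = OD600 absorbance below the run mean of sample wells minus 3.6 SD, in any replicate, cut at about 0.56 in these data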;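 also: stock transfer was 300 nL into about 60 µL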
* hit, by the source's call; i = inactive; ? = inconclusive; nt = no result given; & = joins results of further samples. A portion of the library; the hit share may differ from the screen's.

Vif A3G,FGF22 binding,HNF4A DNA FP,MLL AF4-AF9 inh,UCH37 inh,RanGTP-Impb inh,Ecoli growth,structure
nt,i,2.0,1.3,0.2,3.8,0.65,Cc1ccc(C(=O)NCc2ccco2)cc1
8%,nt,0.5,nt,5.0,2.4,0.69,CCc1cc2c3c(c1)/C(=C1/SC(N)=NC1=O)C(=O)N3C(C)(C)C=C2C
1%&-6%,nt,0.4,nt,-21,-3.2,0.69,COc1ccc(C(F)(F)F)cc1NC(=O)c1nc2nc(C)cc(C(F)F)n2n1
-5%,i,-1.6,-5.8,1.6,nt,0.62,O=C(Nc1ccccc1)N1CCN(c2ccccc2)CC1
-2%,nt,3.2,nt,2.4,-0.2,0.69,O=C(COC(=O)Cc1cccs1)Nc1ccccc1F
3%,nt,-0.4,nt,0.9,?,0.7,Cc1cc(C(=O)c2ccccc2)c(NC(=O)CN2CCOCC2)s1
?,i,-1.5,2.5,6.5,0.6,0.68,O=c1[nH]cc(N(CCO)CCO)c(=O)[nH]1
-1%,i,1.7,-0.6,nt,nt,nt,CCC[C@H]1CN(Cc2cccnc2)C(=O)[C@@H]1CC(=O)Nc1ccc(Br)cc1
-6%,i,2.2,-0.2,6.2,-2.5,0.66,Cc1oc(-c2ccc(Cl)cc2)cc1C(=O)NC1CCN(Cc2ccccc2)CC1
nt,i,2.8,1.2,-101,2.8,0.7,O=C(CN1C(=O)/C(=C\c2cccc(Cl)c2)Sc2ccccc21)NCCCN1CCOCC1
-2%,i,-1.8,0.8,-0.1,nt,0.65,COc1ccc(C)cc1NS(=O)(=O)c1ccccc1
?,nt,-0.4,0.6,-10,1.0,0.63,COc1ccc(/C=C/C(=O)NCc2ccccn2)cc1OC
-1%,i,-1.6,-4.0,0.5,3.0,0.64,COC(=O)c1cccc(-n2c(=O)n(Cc3ccccc3)c(=O)c3[nH]cnc32)c1C
nt,i,2.2,3.0,nt,5.5,nt,Cc1cccc(CN2C(=O)/C(=C\c3ccc(C(=O)NCCCN4CCN(C)CC4)cc3)Oc3ccccc32)c1
-5%,i,0.5,?,nt,nt,nt,CC1CCCCN1CCNC(=O)c1ccc2c(c1)N(Cc1cccc(Cl)c1)C(=O)c1ccccc1S2(=O)=O (stereo unspecified)
nt,i,1.4,1.9,1.0,nt,0.67,O=C(OCC(=O)N1CCC(c2ccccc2)=N1)c1ccc(Cl)s1
33%,i,nt,9.2,11,1.0,0.68,COc1nccnc1NS(=O)(=O)c1ccc(N=Cc2c(C)[nH]n(-c3ccc(Cl)cc3)c2=O)cc1
nt,i,-0.6,2.2,3.7,4.2,nt,CCCCCC(=O)Nc1cccc(C2=NOC3(C2)C[C@@H](C(N)=O)N(C(=O)CC(c2ccccc2)c2ccccc2)C3)c1 (stereo partly specified)
nt,i,-0.1,-1.1,6.4,4.4,0.63,Cc1cc([N+](=O)[O-])ccc1NC(=O)CCC(=O)N1CCCCC1
-3%,i,4.2,-1.1,nt,10,nt,C#CCOc1ccccc1/C=N/NC(=O)c1ccccc1OCc1ccccc1
nt,i,-1.5,-0.5,nt,nt,nt,COc1cc(/C=C2/SC(=S)N(CCC(=O)Nc3cccnc3)C2=O)cc(OC)c1OC
-9%,nt,-1.2,nt,1.9,3.7,0.69,Cc1ccc(C)c(Cn2c(=O)n(CCCC(=O)NCc3ccco3)c(=O)c3sccc32)c1
nt,i,16,-0.8,2.7,0.4,0.72,COc1ccc(/C=C2\SC(=S)N(CCCCCC(=O)Nc3cc(C)on3)C2=O)cc1OC
nt,i,3.5,0.9,0.6,1.8,0.71,COc1ccc(C2=NN(C(=O)CSc3nc4ccccc4s3)C(c3ccc(F)cc3)C2)cc1 (stereo unspecified)
-6%,i,-2.2,1.8,6.2,9.1,0.64,COc1ccc(C(C)=O)cc1CSc1nnc(-c2ccncc2)o1
nt,i,-3.5,-2.5,3.2,0.3,0.69,CC(=O)N1CCN(C(=O)CCc2cc(C(C)(C)C)c(O)c(C(C)(C)C)c2)CC1
22%,nt,0.7,nt,1.7,6.5,0.68,COc1ccccc1NC(=O)COc1ccc(C(=O)OCC(=O)N(C(C)C)C(C)C)cc1OC
nt,i,8.0,2.0,1.0,0.7,0.67,CC(=O)N1c2ccc(S(=O)(=O)N3CCOCC3)cc2CC1C (stereo unspecified)
nt,i,3.7,-2.2,0.6,3.5,nt,CCCCCCCCCCCCN1C/C(=C\C(=O)OCC)c2cc(C(F)(F)F)ccc2S1(=O)=O
-2%,nt,0.4,nt,1.9,0.2,0.68,Cc1ccc(Nc2nc(N)c([N+](=O)[O-])c(NCc3ccco3)n2)cc1
5%,i,2.1,5.5,1.1,?,0.68,O=C(COc1ccc(S(=O)(=O)N2CCCC2)cc1Cl)N1CCN(c2ccccc2)CC1
-2%,nt,-0.3,nt,6.3,-2.1,0.68,COC(=O)CNc1c(-c2ccccc2)nc2ccc(Br)cn12
0%,nt,-1.7,nt,2.8,?,0.67,COc1cccc(N2CCN(Cc3nc4ccccc4c(=O)[nH]3)CC2)c1
17%,i,-0.2,5.7,5.4,2.5,0.64,CC1CCCCC1NC(=O)C1CCC(CNc2c(N3CCCCC3)c(=O)c2=O)CC1 (stereo unspecified)
nt,i,-0.2,1.1,6.0,-3.7,0.67,COc1ccc(NC(=O)CN2C(=O)CSc3ccc(S(=O)(=O)N4CCC(C)CC4)cc32)cc1
-7%,i,0.2,-2.5,1.6,0.6,0.68,CC(=O)c1ccc(S(=O)(=O)N2CCN(S(=O)(=O)c3ccccc3C(F)(F)F)CC2)cc1
-12%,i,4.2,-0.8,-1.2,-0.7,0.69,Cc1cc(=O)n2c(C(=O)Nc3ccc(C(=O)OC(C)C)cc3)c(C(=O)Nc3ccccc3)sc2n1
nt,i,-0.9,9.0,-35,5.4,0.7,COc1ccc(CN(C(=O)c2snc(C(N)=O)c2N)C(C(=O)NC2CCCC2)c2ccco2)cc1 (stereo unspecified)
5%,nt,-0.8,nt,1.3,0.6,0.68,Cc1ccccc1NC(=O)CNc1ccccc1N1CCCCC1
nt,i,4.1,-1.3,4.8,0.6,0.67,O=C(NCc1cccnc1)c1ccccc1NC(=O)c1c(F)cccc1F
-6%,i,-0.3,0.7,4.4,4.2,0.7,CCCCCCCCCCCC(=O)NC1CCS(=O)(=O)C1 (stereo unspecified)
nt,i,-3.2,0.6,1.1,nt,0.69,Cc1ccc(NC(=O)COc2ccccc2C(N)=O)cc1S(=O)(=O)N1CCCCCC1
nt,i,7.7,-0.4,6.5,nt,0.68,COc1ccc2c(c1)oc1c(SCc3nc4ccccc4[nH]3)nc(C)nc12
8%,nt,-4.7,nt,2.8,-2.2,0.63,Cc1ccc(NCCc2ccc(C)nc2)cc1
nt,i,3.5,-0.5,3.3,nt,0.69,CC[C@@]1(C(=O)OC)N[C@H](CN(C)C(=O)C2CCCCC2)[C@@H]2C(=O)N(C)C(=O)[C@@H]21
-5%,i,-0.1,1.2,0.6,nt,0.7,Cc1ccc(Cl)c(NC(=O)COC(=O)c2nn(C)c(=O)c3ccccc23)c1Cl
7%,i,5.4,1.3,0.7,2.0,0.71,CCCCN1C(=O)c2ccc(C(=O)NCc3ccco3)cc2C1=O
69%,nt,0.9,nt,4.0,0.0,0.73,O=C(c1ccccc1Cl)N(C(=O)c1ccccc1Cl)c1nccc(-c2cccs2)n1
9%,i,-0.9,-1.5,4.9,0.2,0.69,Cc1nc2ccccn2c1C(=O)OCC#N
-9%,nt,1.2,nt,5.8,6.9,0.7,CC(=O)NNC(=S)Nc1cc(S(=O)(=O)N(C)C)ccc1C
-4%,nt,3.7,nt,1.2,1.9,0.74,C=CCNC(=O)C1CCN(c2c([N+](=O)[O-])cc(C(F)(F)F)cc2[N+](=O)[O-])CC1
1%,i,2.9,-3.3,nt,nt,nt,NS(=O)(=O)c1cccc(NC(=O)CSc2nnc(-c3ccccc3)o2)c1
3%,nt,-0.2,nt,-4.7,-0.1,0.72,CCOC(=O)c1c(NC(=O)C2CCCO2)sc2c1CCC2 (stereo unspecified)
-14%,nt,0.7,nt,-6.4,-2.3,0.7,Cc1cccc2nc(CSc3nc4[nH]ncc4c(=O)n3-c3cccc(Cl)c3)cc(=O)n12
-3%,i,-1.6,1.8,0.8,-1.6,0.68,Cc1ccc(S(=O)(=O)NCc2ccccc2)cc1C(=O)N(C)Cc1ccc(F)cc1
nt,i,1.6,-1.8,0.7,-2.0,0.71,O=C(NCCCNC(=O)c1cnccn1)c1cccc(F)c1
4%,i,-0.5,-0.5,0.8,-1.2,0.64,CC(=O)Nc1ccc(NC(=O)CSc2ncnc3c2cnn3Cc2ccccc2)cc1
nt,i,-2.4,-1.8,0.3,-2.2,0.71,O=C(O)[C@H](CSCc1ccccc1)NS(=O)(=O)c1ccc(F)cc1
4%&2%,nt,1.5,nt,1.5,2.2,0.71,O=C(CCN1C(=O)c2ccccc2C1=O)NCCC1=CCCCC1
-5%,i,-2.6,0.8,2.1,-4.2,0.69,CCCn1c(C)nnc1SCC(=O)NC1CCCCC1

(more compounds)
Vif A3G,FGF22 binding,HNF4A DNA FP,MLL AF4-AF9 inh,UCH37 inh,RanGTP-Impb inh,Ecoli growth,structure
nt,i,-1.7,-2.3,3.9,-0.3,0.67,O=C(O)C(Nc1nc(C(F)(F)F)nc2ccccc12)c1ccccc1 (stereo unspecified)
nt,i,0.4,1.3,1.3,1.2,0.67,CN(C)c1ccc(CNCC2CCCO2)cc1 (stereo unspecified)
nt,nt,nt,nt,0.7,0.1,0.64,COc1cc(CNCCN2CCOCC2)ccc1OCc1c(Cl)cccc1Cl
nt,i,6.9,-0.9,9.6,-2.8,0.72,COc1cccc(-c2c(NC(=O)c3ccco3)oc3ccccc3c2=O)c1
-2%,nt,-2.9,nt,1.3,-2.2,0.68,Cc1ccc(C(C[N+](=O)[O-])n2nc(C)cc2C)cc1 (stereo unspecified)
nt,i,-2.7,-1.6,2.9,nt,0.68,COc1ccc(CN(C)C(=O)C(CCSC)NS(=O)(=O)c2ccc3c(c2)OCCO3)c(OC)c1OC (stereo unspecified)
6%,i,-0.3,1.4,1.6,4.2,0.73,CCOC(=O)C1CCN(CC(=O)Nc2cc(S(=O)(=O)N3CCOCC3)ccc2C)CC1
nt,nt,-1.4,nt,6.7,1.6,0.7,Cc1ccc(NC(=O)/C(Cl)=C/c2ccccc2)cc1C
9%,i,-3.9,-4.2,nt,1.3,nt,O=C(O)COc1ccccc1/C=N/NC(=O)CSc1nnc(SCc2cccc3ccccc23)s1
6%,nt,-1.2,nt,3.0,?,0.78,CCOC(=O)CS(=O)(=O)c1nc(-c2ccc(F)cc2)cc(C(F)(F)F)n1
nt,i,-1.7,?,0.5,nt,0.71,COc1ccccc1C(=O)NCCC(=O)Nc1ccc(S(=O)(=O)N2CCCC(C)C2)cc1 (stereo unspecified)
12%,i,-0.4,1.5,nt,-0.3,nt,O=C1NCC(c2ccccc2)C1C(=O)N/N=C/c1ccc(Cl)s1 (stereo unspecified)

Three structures from above, sorted by length of the SMILES, low to high:
Vif A3G,FGF22 binding,HNF4A DNA FP,MLL AF4-AF9 inh,UCH37 inh,RanGTP-Impb inh,Ecoli growth,structure
nt,i,-1.7,-2.3,3.9,-0.3,0.67,O=C(O)C(Nc1nc(C(F)(F)F)nc2ccccc12)c1ccccc1 (stereo unspecified)
nt,i,-1.7,?,0.5,nt,0.71,COc1ccccc1C(=O)NCCC(=O)Nc1ccc(S(=O)(=O)N2CCCC(C)C2)cc1 (stereo unspecified)
nt,i,-2.7,-1.6,2.9,nt,0.68,COc1ccc(CN(C)C(=O)C(CCSC)NS(=O)(=O)c2ccc3c(c2)OCCO3)c(OC)c1OC (stereo unspecified)
